From PubChem BioAssay
MLL AF4-AF9 inh: inhibitors of AF4 peptide binding to AF9, primary screen, biochemical, AlphaScreen, biotin-AF4 peptide, FLAG-AF9, single point; Protein AF-9 (Homo sapiens), P42568; inhibition, % at 10 µM; hit rate 0.47% among 350,000; AID 651704, 2012;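 active = every replicate reaching a set inhibition limit, whatever the replicate mean, cut at about 25% in these data; inconclusive = mean inhibition reaches that limit but some replicates miss it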;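 also: 0% = plate neutral control median and 100% = total signal loss; the record names both 10 and 1 µM as test concentration; the first replicate is given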
Target sequence (P42568 whole entry, looked up): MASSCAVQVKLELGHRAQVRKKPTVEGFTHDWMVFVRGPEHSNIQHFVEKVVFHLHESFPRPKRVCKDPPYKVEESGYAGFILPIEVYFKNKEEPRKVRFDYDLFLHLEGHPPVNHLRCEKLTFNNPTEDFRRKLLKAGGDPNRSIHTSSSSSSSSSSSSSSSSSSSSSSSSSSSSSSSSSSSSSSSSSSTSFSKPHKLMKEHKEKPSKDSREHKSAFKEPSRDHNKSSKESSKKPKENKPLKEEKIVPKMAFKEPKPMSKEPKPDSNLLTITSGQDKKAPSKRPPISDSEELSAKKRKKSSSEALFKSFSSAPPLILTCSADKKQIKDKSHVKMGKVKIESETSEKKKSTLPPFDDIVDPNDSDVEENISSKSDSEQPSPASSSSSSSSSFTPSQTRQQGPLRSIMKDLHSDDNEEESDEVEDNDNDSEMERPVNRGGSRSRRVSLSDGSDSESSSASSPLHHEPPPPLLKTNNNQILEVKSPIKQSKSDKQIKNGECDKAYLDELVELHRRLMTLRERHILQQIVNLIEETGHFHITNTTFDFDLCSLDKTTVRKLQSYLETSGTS
Vif TR-FRET: inhibitors of Vif binding to APOBEC3G peptide, primary screen, biochemical, TR-FRET, GST-Vif 1-94, biotin-A3G peptide, dose response retest (AID 1117319). hit rate 0.57% among 260,000. TR-FRET GST-Vif / biotin-A3G peptide binding; higher % means a stronger effect; test concentration not given here; strong numbers were not always called active. inhibition, %; hits with a dose series show IC50 in µM;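 active = above the screen mean plus three standard deviations and confirmed in dose response; inconclusive = results disagree or hit not tested in dose response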;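 also: Vif residues 1-94 fused to GST binding biotinylated APOBEC3G peptide 110-148; 0% = full assay without inhibitor and 100% = GST in place of GST-Vif; retest series ran down from 100 µM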
HNF4A DNA FP: change in binding of human HNF4A to DNA, primary screen, biochemical, fluorescence polarization, FITC-DNA; hit rate 0.3% among 360,000; activity change, % at 10 µM; 1 h; Hepatocyte nuclear factor 4-alpha (Homo sapiens), P41235; in the data active = activity change above about 30%, passing the limit was not always enough;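 also: controls were the assay level and a saturating level of protein; the project sought stronger binding though the title names inhibitors; some compounds called inactive have numbers as strong as hits; positive values seem to mean higher polarization but the record does not say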
rRNA inh HTS: reduced GFP signal of wild-type E. coli, primary screen, bacterial rRNA inhibitor project, GFP/RFP fluorescence, OD600, single point; E. coli WT GFP vs humanized-ribosome RFP mutants, 24 h; active compounds read low; DMSO median 0, no signal -100; GFP signal change (wild-type ribosome), % (concentration not given with the values); hit rate 1.6% among 350,000; AID 720706, 2013;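 active = significant combined selectivity score with lowered wild-type GFP, culture density cut under 30%, mutant RFP and density less affected; inactive = any of these conditions unmet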; also: one replicate is shown; some compounds called inactive have numbers as strong as hits
E coli growth: E. coli growth inhibition, primary screen, OD600; hit rate 0.21% among 330,000; Escherichia coli growth, 23 h; active compounds read low; AID 1053175, 2014; OD600 absorbance (concentration not given with the values);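 active = OD600 absorbance below the run mean of sample wells minus 3.6 SD, in any replicate, cut at about 0.56 in these data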;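 also: stock transfer was 300 nL into about 60 µL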
ALR inh: inhibitors of human ALR sulfhydryl oxidase, primary screen, biochemical, H2O2 detection, HRP-luminol luminescence, single point; FAD-linked sulfhydryl oxidase ALR (Homo sapiens), P55789; purified ALR, DTT oxidation; inhibition, % (concentration not given with the values); hit rate 3.8% among 290,000;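 active = mean and each replicate at 75% or more; inconclusive = only one of the two met; inactive = neither met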;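 also: stock transfer was 7.5 nL into about 7.5 µL; 0% = neutral wells and 100% = wells with inactivated enzyme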
Target sequence (P55789 whole entry, looked up): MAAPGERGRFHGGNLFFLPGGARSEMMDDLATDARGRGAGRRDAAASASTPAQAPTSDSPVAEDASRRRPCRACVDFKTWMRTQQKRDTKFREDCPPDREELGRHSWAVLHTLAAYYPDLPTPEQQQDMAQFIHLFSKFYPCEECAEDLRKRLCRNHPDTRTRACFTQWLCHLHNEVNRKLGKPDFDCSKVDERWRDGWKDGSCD
FGF22 binding: binders of human FGF22 protein, primary screen, FGF22 synaptogenesis inhibitor project, biophysical, thermal shift, single point; Fibroblast growth factor 22 (Homo sapiens), Q9HCT0; recombinant FGF22 thermal shift, SYPRO orange fluorescence; percent of sucrose octasulfate shift, DMSO zero; calls only at 9.99 µM; hit rate 1.5% among 340,000;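 active = melting point raised past a set limit in the mean and every replicate; inconclusive = no clear call; three in four hits are not shown here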
Target sequence (Q9HCT0 whole entry, looked up): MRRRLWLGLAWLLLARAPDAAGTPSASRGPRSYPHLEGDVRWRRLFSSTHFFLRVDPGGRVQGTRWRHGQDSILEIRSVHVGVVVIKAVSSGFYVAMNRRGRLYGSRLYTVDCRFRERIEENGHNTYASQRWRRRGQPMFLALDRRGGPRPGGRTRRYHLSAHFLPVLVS
rRNA inh HTS OD600: second read-out of rRNA inh HTS, no call of its own (marks repeat the call); OD600 change, %; measured here: OD600 growth;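 optical density of the mix in the first replicate; 0 = DMSO median and -100 = no signal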
rRNA inh HTS RFP: further read-out of rRNA inh HTS, marked with its call; RFP signal change, %; measured here: RFP humanized mutant strains;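 first replicate; 0 = DMSO median and -100 = no signal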
* hit, by the source's call; i = inactive; ? = inconclusive; / = not tested or not shown; & = joins results of further samples.

SMILES	MLL AF4-AF9 inh	Vif TR-FRET	HNF4A DNA FP	rRNA inh HTS	rRNA inh HTS OD600	rRNA inh HTS RFP	E coli growth	ALR inh	FGF22 binding
C1CCC(Nc2nc3nonc3nc2N2CCSCC2)C1	1.0	-1%	4.0	3	2	0.9	0.7	-28	i
O=C(COc1cc2oc(=O)c3c(c2cc1Cl)CCC3)NCc1ccncc1	10	/	2.0	1	2	-2.9	0.66	0	i
O=C(O)c1ccccc1OCCOc1ccccc1C(=O)O	/	1%	-2.3	/	/	/	0.67	-1	/
CCOc1ccc(S(=O)(=O)N/N=C2/CC(c3ccccc3)Oc3ccccc32)cc1 (stereo not drawn)	/	5%	6.1	/	/	/	/	12	/
CC(=O)N(C)C[C@@H]1Oc2ncc(-c3cncnc3)cc2C(=O)N([C@@H](C)CO)C[C@@H]1C	-2.5	/	/	5	3	-1.1	/	/	i
CCNC(=O)N1CCCC(C(=O)c2ccc3cc(OC)ccc3c2)C1 (stereo not drawn)	-1.9	2%	9.1	1	2	0.2	0.69	-13	i
CCN(CC(=O)N1CCCC1)S(=O)(=O)c1ccc2ccccc2c1	-5.1	/	-190	-4	-7	0.2	0.64	/	i
CCOc1ccc(NS(=O)(=O)c2ccc3[nH]c(=O)c(=O)[nH]c3c2)cc1	-2.8	2%	-1.9	12	10	-1.1	0.62	-4	i
CC(/C=C/c1cccs1)=C\C(=O)O	/	1%	0.9	/	/	/	0.72	-11	/
Cc1ccc(S(=O)(=O)N2CCCOC2CNC(=O)C(=O)NCc2ccccc2C)cc1 (stereo not drawn)	1.0	/	-1.7	14	6	1.1	0.69	-4	i
C[C@H](CO)N1C[C@H](C)[C@@H](CN(C)C)Oc2c(NC(=O)c3ccc(-c4nccs4)cc3)cccc2C1=O	0.0	/	/	-3	1	1.6	/	/	i
O=S(=O)(NCc1ccc2c(c1)OCO2)c1c(F)cc(F)cc1Br	-3.1	?	2.5	-8	-7	6.8	0.68	-3	i
COC(=O)c1ccc(CN2C(=O)C(C)ON=C2c2ncccc2C)o1 (stereo not drawn)	2.1	/	-0.7	9	13	-0.2	/	/	i
CCOC(=O)Cn1c(SC)nc2sc3c(c2c1=O)CC(C)(C)OC3	/	25%	-3.1	/	/	/	0.65	/	/
COc1ccccc1CC(=O)Nc1c[nH]c(=O)[nH]c1=O	0.1	/	1.0	6	9	2.6	0.7	-14	i
CC1=CC(C)(C)N2C(=O)C3(SCC(=O)N3c3ccc(O)cc3)c3cc(C)cc1c32 (stereo not drawn)	/	-1%	1.4	/	/	/	0.7	-18	/
Cc1ccccc1OCC(=O)N/N=C/c1c(C)nn(-c2ccccc2)c1Cl	/	24%	-6.2	/	/	/	/	-3	/
Cc1ccc(OCC(=O)Nc2ccc(-n3cnnn3)cc2)c(C)c1	-0.6	3%	3.6	6	8	2.1	0.69	/	i
CC1CCCCC1NC(=O)CCS(=O)(=O)c1ccc2c(c1)NC(=O)CS2 (stereo not drawn)	-0.3	0%	4.6	3	5	0.0	0.66	-10	i
CCOC(=O)N1CCN(S(=O)(=O)c2cc(Br)cc3c2N(C(=O)C2CC2)CC3)CC1	/	-5%	-0.9	/	/	/	0.7	1	/
COc1cc(C)c(NC(=O)C(=S)NCc2ccccc2)cc1C	-0.7	/	0.8	10	2	-2.0	0.71	-9	i
Cc1onc(-c2ccccc2Cl)c1C(=O)NCc1ccccc1F	-1.3	/	-2.4	-16	-10	0.8	0.68	7	i
CN(C)S(=O)(=O)c1cccc(NC(=O)c2ccc(N3CCCC3=O)cc2)c1	-2.6	/	-0.2	11	14	-1.6	0.68	/	i
C[C@@H](NC(=O)C[C@H]1CC[C@@H](NC(=O)C2CCC2)[C@H](CO)O1)c1ccccc1	3.9	/	/	0	0	-3.8	/	/	i
Cc1ccn2c(NC3CCCCC3)c(-c3cccc(-c4cccc(Cl)c4)c3)nc2c1	7.9	/	11	62	21	43	/	/	i
COc1ccc2nc(SCC(=O)Nc3nccs3)[nH]c2c1	-8.5	/	1.1	0	1	0.7	0.63	2	i
CC1(C)CN(c2ccc(Br)cc2)C(=O)[C@H]1CC(=O)Nc1ccccc1	-3.4	/	-8.3	-10	-27	-6.0	/	/	i
C[C@H](CO)N1C[C@H](C)[C@@H](CN(C)Cc2ccc3c(c2)OCO3)OCCCC[C@H](C)Oc2ccc(NC(=O)Nc3ccc4c(c3)OCO4)cc2C1=O	14	/	/	2	-24	15	/	/	i
C[C@H](CO)N1C[C@H](C)[C@@H](CN(C)S(=O)(=O)c2cn(C)cn2)Oc2cc(Br)ccc2S1(=O)=O	0.4&-2.3	-7%	-3.4	3&-6	7&-13	-1.1&-1.7	/	/	i
c1cncc(-c2nc3c(ccc4ccccc43)[nH]2)c1	6.2	-1%	13	-36	-30	-14	0.7	-14	i
Cn1c(SCC(=O)N2CCOCC2)nnc1-c1ccc2ncccc2c1	-3.1	-2%	1.2	12	-7	-0.2	0.62	-3	i
CCc1ccc(C=NC23CN4CN(CN(C4)C2)C3)s1	/	4%	-3.4	/	/	/	0.71	-7	/
CC(C)N1C(=O)C(O)(C2COC(C)(C)CC2=O)c2ccccc21 (stereo not drawn)	0.6	/	1.4	6	8	1.7	0.71	-9	/
CCCN(CC(=O)Nc1ccccc1C)C(=O)C1CC(=O)N(c2ccccc2C(C)CC)C1 (stereo not drawn)	4.9	7%	0.6	-11	-23	3.6	0.68	/	i
COc1ccc(C2C(C#N)=C(N)Oc3c2c(-c2ccccc2)nn3-c2ccccc2)c(OC)c1OC (stereo not drawn)	/	12%	-2.3	/	/	/	0.7	/	/
CN(C)C(=O)CSc1nc(-c2ccccc2)c(-c2ccccc2)o1	6.6	/	-2.4	-57	-82	-22	0.68	-7	/
COC(=O)c1ccc(NC(=O)C23CC4CC(C2)CC(n2cnc(Cl)n2)(C4)C3)cc1	/	3%	1.1	/	/	/	0.69	-3	/
CCOC(=O)C1=CN(CC)S(=O)(=O)NC1CC (stereo not drawn)	-2.6	0%	-3.7	5	16	-5.8	0.68	/	i
O=C(c1ccco1)N1CCN(C(=O)C2(S(=O)(=O)c3ccc(Cl)cc3)CC2)CC1	/	?	-1.3	/	/	/	0.69	-3	/
CC(C)NC(=O)N(C)C[C@@H]1OCCCC[C@@H](C)Oc2ccc(NC(=O)c3ccccc3)cc2C(=O)N([C@@H](C)CO)C[C@@H]1C	2.6	/	/	2	6	-2.5	/	/	i
COCCCn1c(SCc2cccc(C(F)(F)F)c2)nc2cc(OC)c(OC)cc2c1=N	/	23%	4.5	/	/	/	0.7	-55	/
CC(=O)N(CCc1ccccc1)Cc1cc2cc(C)ccc2[nH]c1=O	-5.7	/	3.5	20	7	2.2	0.69	/	i
COCc1cc(Sc2ccc(Cl)cc2Cl)nc(-c2ccccc2)n1	/	8%	-2.6	/	/	/	0.8	8	/
CCC(C(=O)Nc1cc(C(=O)Nc2cc(C)ccn2)ccc1Cl)c1ccccc1 (stereo not drawn)	0.0	-9%	-6.0	-11	-29	-12	0.63	-1	i
C[C@@H]1CCCCO[C@@H](CN(C)C(=O)Nc2ccc(C(F)(F)F)cc2)[C@H](C)CN([C@H](C)CO)C(=O)c2cc(NC(=O)NC3CCCCC3)ccc2O1	-3.3	/	/	4	13	-2.8	/	/	i
CCOC(=O)c1[nH]nc(N)c1NC(=O)c1ccc(Cl)cc1Cl	/	10%	0.6	/	/	/	0.73	-5	/
O=C(Cn1cccc1)NCc1cccs1	/	12%	-2.1	/	/	/	0.74	7	/
CCC(C)NC(=O)c1ccc(NC(=O)C2=C(C)OCCS2)cc1 (stereo not drawn)	-3.7	-11%	2.5	2	0	-1.7	0.65	-4	i
O=Cc1cccc(OCc2cccc3ccccc23)c1	-3.7	-9%	0.7	-16	-5	1.2	0.64	-3	i
CSc1cccc(NC(=O)CCCNC(=O)c2ccc(Cl)cc2)c1	-1.1	/	-0.3	-7	-28	-1.5	/	-7	i
CC(C)(C)c1ccc(CC(=O)N2CCC2(C)C(=O)Nc2ccc(F)cc2F)cc1 (stereo not drawn)	-3.0	/	-0.4	-9	-43	-5.7	/	/	i
COc1ccc(NC(=O)N[C@@H]2CC[C@@H](CCn3cc(-c4ccc(F)cc4)nn3)O[C@H]2CO)cc1	-13	/	/	0	-2	-2.1	/	/	i
CCN(CC)C(=O)C1=C(C)N(CCC2=CCCCC2)C(=O)C(CC(=O)NCc2cccs2)C1 (stereo not drawn)	-0.1	-4%	1.4	-6	-2	6.8	/	/	i
O=C(COc1ccc(Br)cc1)Nc1nnc(-c2cccnc2)s1	-5.8	/	/	12	2	0.9	0.71	/	i
CN(C)C(=O)c1ccc(-c2ccc([C@H]3[C@H](CO)N4CCCCN(CC5CC5)C[C@@H]34)cc2)cc1	-2.0	/	/	6	15	-4.7	/	/	i
CCOC(=O)c1ccc(CNC(=O)c2n[nH]c(=O)c3ccccc23)o1	/	9%	-2.5	/	/	/	0.65	0	/
COCC(=O)Nc1ccc2c(c1)[C@@H]1C[C@@H](CC(=O)NCCc3ccccc3)O[C@H](CO)[C@@H]1O2	-0.8	/	/	1	6	-0.5	/	/	i
COc1cnn(Cc2ccccc2)c(=O)c1SCc1ccccc1	/	-5%	1.2	/	/	/	0.71	3	/
CN(C)C(=O)CSc1nnc([C@H](Cc2c[nH]c3ccccc23)NC(=O)OC(C)(C)C)o1	/	5%&8%	0.4	/	/	/	0.69	-3	/
C1=CC2(C=C1)OC21CCC2(C=CC3(C2)OC3C2CCCCC2)CC1 (stereo not drawn)	0.3	-4%	2.2	-3	-16	2.4	/	/	i

The list continues.
SMILES	MLL AF4-AF9 inh	Vif TR-FRET	HNF4A DNA FP	rRNA inh HTS	rRNA inh HTS OD600	rRNA inh HTS RFP	E coli growth	ALR inh	FGF22 binding
CO[C@@H]1CN(C)C(=O)c2cc(NS(=O)(=O)c3ccccc3C)ccc2OC[C@@H](C)NC[C@H]1C	-1.4	/	/	2	0	-0.9	/	/	i
O=C(CN(C(=O)c1ccc2c(c1)OCCO2)c1ccccc1)NCC1CCCO1 (stereo not drawn)	/	1%	0.0	/	/	/	0.72	0	/
C[C@H](CO)N1C[C@H](C)[C@@H](CN(C)Cc2ccncc2)Oc2ccc(N(C)C)cc2C1=O	-2.6	/	/	3	7	-2.1	/	/	i
C[C@H](CO)N1C[C@H](C)[C@@H](CN(C)S(=O)(=O)c2cn(C)cn2)OCCCC[C@H](C)Oc2ccc(NC(=O)c3ccncc3)cc2C1=O	-2.3	/	/	-5	-2	-4.9	/	/	i
CCOC(=O)C1CCN(CCC(=O)Nc2ccccc2)CC1	/	26%	0.3	/	/	/	0.73	-2	/

Of the compounds above, these have a COOH group:
SMILES	MLL AF4-AF9 inh	Vif TR-FRET	HNF4A DNA FP	rRNA inh HTS	rRNA inh HTS OD600	rRNA inh HTS RFP	E coli growth	ALR inh	FGF22 binding
O=C(O)c1ccccc1OCCOc1ccccc1C(=O)O	/	1%	-2.3	/	/	/	0.67	-1	/
CC(/C=C/c1cccs1)=C\C(=O)O	/	1%	0.9	/	/	/	0.72	-11	/

The list is partial; rates above refer to the full screens.
